From PubChem
GCN5L2 inh – GCN5L2 (KAT2A) acetyltransferase inhibition | Q92830 | GCN5L2 HAT assay, ThioGlo1 CoA-SH fluorescence | Potency, µM (highest dose often 58.9 µM), without a hit: at the highest dose activity change, negative = inhibition, most hits filed as inhibitors | hit rate 0.21% among 390,000; active = well fitted inhibition curve with a large enough effect; inconclusive = small, poorly fitted or top-dose-only effect, or another doubt; inactive = no such curve, though single readings can be large or run the other way
Target sequence (Q92830 whole entry, looked up): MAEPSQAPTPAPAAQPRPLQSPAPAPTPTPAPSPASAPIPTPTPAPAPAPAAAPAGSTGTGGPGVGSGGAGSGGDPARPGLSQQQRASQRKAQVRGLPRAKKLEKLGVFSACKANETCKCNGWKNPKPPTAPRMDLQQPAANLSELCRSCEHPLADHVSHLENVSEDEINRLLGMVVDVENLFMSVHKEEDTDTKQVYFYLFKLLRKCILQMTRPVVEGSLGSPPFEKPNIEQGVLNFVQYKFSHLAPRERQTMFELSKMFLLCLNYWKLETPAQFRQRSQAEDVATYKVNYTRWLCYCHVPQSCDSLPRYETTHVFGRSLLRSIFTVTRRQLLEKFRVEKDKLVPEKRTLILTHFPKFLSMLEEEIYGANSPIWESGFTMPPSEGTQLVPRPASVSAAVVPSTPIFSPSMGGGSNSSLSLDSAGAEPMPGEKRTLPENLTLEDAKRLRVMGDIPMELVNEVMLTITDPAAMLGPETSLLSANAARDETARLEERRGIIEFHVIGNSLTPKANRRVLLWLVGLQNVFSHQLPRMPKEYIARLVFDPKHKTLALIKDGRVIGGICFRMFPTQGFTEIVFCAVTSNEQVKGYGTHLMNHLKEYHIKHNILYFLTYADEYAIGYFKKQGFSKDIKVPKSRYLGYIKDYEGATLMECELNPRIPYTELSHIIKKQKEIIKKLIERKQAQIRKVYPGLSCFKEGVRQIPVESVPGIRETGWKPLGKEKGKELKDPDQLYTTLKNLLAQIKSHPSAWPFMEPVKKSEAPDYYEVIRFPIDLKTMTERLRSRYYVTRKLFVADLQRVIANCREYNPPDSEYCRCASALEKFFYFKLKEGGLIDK
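GCN5L2 (20nM final) in 50mM HEPES, 0.1mM EDTA pH 7.5, 0.01% Tween-20 was preincubated 15 min at room temperature with compound, then given ThioGlo1 (50uM), H3(1-25) peptide (75uM) and acetyl-CoA (70uM); CoA-thiol fluorescence (Ex340/Em540) was read at 0 and 20 min.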
Active calls of the source: *; ? = inconclusive; & = joins results of further samples; [ ] = dose if it differs, or a comment. % is set by controls: 0 for no effect and ±100 for the full control effect; potency is the fitted concentration of half-maximal effect. The list is partial, and most or all hits are left out here.

SMILES	GCN5L2 inh
COC(=O)c1ccc(COc2cc(C)cc3oc(=O)c4c(c23)CCCC4)o1	-3%
Cc1ccccc1-n1c(-c2ccc([N+](=O)[O-])cc2)nc2ccccc2c1=O	-2%
O=C(Nc1ccccc1F)OC1CN2CCC1CC2 (stereo not drawn)	-3%
O=C1NC(=O)C2(Cc3ccccc3N3CCCC32)C(=O)N1c1cccc(Cl)c1 (stereo not drawn)	-2%
CCOC(=O)N(CC)c1ccc(C(O)(C(=O)OCC)C(F)(F)F)cc1 (stereo not drawn)	2%
C[C@]12CCC3C(CC[C@@H]4CC(=O)CC[C@]34C)C1CC[C@@H]2O (stereo partly drawn)	-3%
Cc1cc(Cl)ccc1OCCCC(=O)NCc1cccs1	-9%
O=C(C1CC(=O)N(C2CCCCCCC2)C1)N1CCC2(CC1)OCCO2 (stereo not drawn)	-10%
CS(=O)(=O)N1CCCC(C(=O)N2CCC3(CC2)OCCO3)C1 (stereo not drawn)	-7%
OC12ONC(c3ccccn3)C1N1CCC2CC1 (stereo not drawn)	-2%
Cc1cc(NC(=O)COC(=O)c2c(C)nn(Cc3ccccc3Cl)c2Cl)no1	-6%
CN(C)C1=NC(N(C)C)=NP(N(C)C)(N(C)C)=N1	-1%
C[C@]12CCC(=O)C=C1C=C[C@@H]1[C@@H]2CC[C@@]2(C)[C@H]1CC[C@@]2(O)CCC(=O)O	-2%
COC(=O)c1cc2c(s1)=NC=NP=2(N1CCOCC1)N1CCOCC1	-13%
C[C@]12CCC3C(CC[C@H]4C[C@@H](O)CC[C@]34C)C1C[C@@H](O)C2=O (stereo partly drawn)	2%
O=Cc1cn(Cc2ccccc2[N+](=O)[O-])c2ccccc12	-17%
CC(C)c1ccc(NC(=O)CSc2nnc(OC(=O)N(C)C)n2C2CC2)cc1	-5%
C=C(C)C(Cc1c(OC)ccc(C(=O)/C=C/c2ccc(O)cc2)c1O)OO (stereo not drawn)	-12%
COc1cccc(C(=O)C2CCCN(Cc3ccc4nonc4c3)C2)c1 (stereo not drawn)	-8%
Cc1ccc(/C=C2/Sc3ccc(C(=O)N4CCC5(CC4)OCCO5)cc3NC2=O)cc1	-3%
CCC1(C(=O)c2ccccc2)C2c3ccccc3OC(=O)C21C(C)=O (stereo not drawn)	0%
O=c1ccc2[nH]cc(C3=CCNCC3)c2[nH]1	-26%
C=CC1CN2CCC1CC2C(OC(=O)OCC)c1ccnc2ccc(OC)cc12 (stereo not drawn)	-2%
BrCCc1ccccc1	-7%
Cc1cccc(OCC(=O)N2CCN(Cc3cc(=O)n4nc(-c5ccccc5Cl)sc4n3)CC2)c1	6%

Next section
SMILES	GCN5L2 inh
C=CCN1C[C@H](C)N([C@H](c2ccc(C(=O)N(CC)CC)cc2)c2cccc(OC)c2)C[C@H]1C	6%
Cc1ccsc1C(=O)C1CCCN(Cc2cccc(OCCO)c2)C1 (stereo not drawn)	-5%
COc1ccc2c3c1OC1C(=O)CC[C@@]4(O)[C@@H](C2)N(C)CC[C@]314 (stereo partly drawn)	-1%
NC[C@H](O)c1ccc(O)cc1	-5%[21.4 µM]
C=CCC1(CN2CCCC2=O)C(=O)NC(=O)NC1=O	-2%
CN1C[C@H](CNC(=O)OCc2ccccc2)C[C@H]2c3cccc4c3c(cn4C)C[C@@H]21	5%[21.4 µM]
CC(N)c1cccc(Cl)c1Cl (stereo not drawn)	-9%
C#CCOC(=O)C1=CCCN(C)C1	-4%&-6%&-7%
CC1(C)C2([N+](=O)[O-])CN3CN(C2)CC1([N+](=O)[O-])C3	5%
CC(C)(C)C(=O)O[C@H]1CC[C@@]2(C)C(=CC(=O)C3C2CC[C@]2(C)C(=O)CCC32)C1 (stereo partly drawn)	-1%
Cc1cccc(-c2nc3ccccc3c(=O)n2-n2cccc2)c1	-2%
S=C(NC1CCCCC1)N1CCC(c2cnc[nH]2)CC1	4%
COc1ccc2c3c1OC1CC(O)C=CC31CCN(C)C2 (stereo not drawn)	-3%&0%
Clc1ccc2c(c1)C(c1ccccc1Cl)=NCc1nnc(Br)n1-2	-5%
O=C(CN1CCOCC1)NCC(=O)Nc1ccc(Br)cc1C(=O)c1ccccc1	-5%
C[C@]12CCC(=O)C=C1CC[C@@H]1[C@@H]2CC[C@@]2(C)[C@H]1CC[C@]2(C)O	-5%&-7%
O=c1[nH]oc2c1CCNC2	-3%
N#Cc1ccc(NC(=O)CN2CCCCCC2)cc1Cl	-2%
C[C@@H](Cc1ccc(O)cc1)NC[C@@H](O)c1cc(O)cc(O)c1	-6%
Cc1nn(Cc2ccccc2Cl)c(Cl)c1C(=O)O	-13%
CCOC(=O)C1(c2ccccc2)CCN(Cc2cccc(C(=O)O)c2)CC1	0%
Cc1ccc(C2N(c3ccccn3)C(=O)C3CCCN32)o1 (stereo not drawn)	0%
C[C@]12CCC3[C@@H](CC[C@@H]4C[C@H](O)CC[C@]34C)[C@@H]1CCC2=O (stereo partly drawn)	-10%
O=C(c1ccccc1)c1cn(CC(=O)N2CCCc3ccccc32)c2ccccc12	-7%
CCCN(CCC)C1Cc2cc(OC)c(OC)cc2C1	-22%

Reformatted bar-delimited: entries from further up
smiles | GCN5L2 inh
Cc1nn(Cc2ccccc2Cl)c(Cl)c1C(=O)O | -13%
CN1C[C@H](CNC(=O)OCc2ccccc2)C[C@H]2c3cccc4c3c(cn4C)C[C@@H]21 | 5%[21.4 µM]

Additional compounds.
SMILES	GCN5L2 inh
COc1cccc(O)c1CN1CCCC(C(=O)c2sccc2C)C1 (stereo not drawn)	0%
COc1ccc(C(CC(=O)N2CCC3(CC2)OCCO3)NS(=O)(=O)c2ccc(F)cc2)cc1 (stereo not drawn)	-2%
Cc1ncc(CN2CCCC(C(=O)c3cccc(Cl)c3)C2)s1 (stereo not drawn)	-1%
CN1CCc2nc3ccc(F)cc3c(C(N)=O)c2C1	-2%
CCCCc1nc2ccccc2c(=O)n1-c1ccc(Cl)cc1[N+](=O)[O-]	-1%
Cc1ccc2c(c1)c(=O)c1c3n2CCN(CC#N)C3CC1 (stereo not drawn)	-17%
COC(=O)C1=C(c2ccc(Cl)c(C(F)(F)F)c2)C[C@@H]2CC[C@H]1N2C(=O)N1CCCC1	0%
COc1ccccc1CN1CCN(C(=O)Cc2ccccc2)CC1	2%
CN(C)N=O	-9%
CCC(=Nc1ccc(OC)cc1OC)c1c(O)n(C)c(=O)n(C)c1=O	1%
CS(=O)(=O)NCc1nnc2n1-c1ccc(Cl)cc1C(c1ccccc1)=NC2	-1%
O=C1CC2OCC=C3CN4CC[C@@]56c7ccccc7N1C5C2C3CC46 (stereo partly drawn)	-10%
COc1ccc(C)cc1NC(=O)N1CCC2(CC1)OCCO2	-12%
O=C1NC(=O)C2(Cc3ccccc3N3CCCC32)C(=O)N1 (stereo not drawn)	-7%
COC(=O)C1=C(c2ccccc2OCc2ccccc2)C[C@@H]2CC[C@H]1N2C(=O)NCCc1ccc(F)cc1	-5%
O=c1c2ccccc2nc(/C=C/c2ccc(F)cc2)n1-c1ccccc1O	-18%
COc1ccc2c(CN3CC=C(c4ccccc4)CC3)cc(=O)oc2c1	-2%
CCOC(=O)c1c(N)n(Cc2ccccc2)c2nc3ccccc3nc12	-6%
CCCCCc1cc(O)c2c3c(c(=O)oc2c1)CN(C)CC3	-1%
c1ccc(OCC2CO2)cc1 (stereo not drawn)	-1%
COc1ccc(CN2C(=O)NC(=O)/C(=C\c3ccc(OC)c(OC)c3OC)C2=O)cc1	-10%
CCCn1ncc(C(=O)O)c1C	1%
COC(=O)C1=C(c2ccc(F)cc2OCc2ccccc2)C[C@@H]2CC[C@H]1N2C(=O)N1CCCCC1	-14%
C#CCN1C(C)=C(C(=O)CCO)[C@@H](c2cccc(-n3oo3)c2)C(C(=O)OC)=C1C	?
O=C(O)C1(c2ccc(Cl)cc2)CCC1	-6%

Remaining list, next part:
SMILES	GCN5L2 inh
CC(=O)Nc1ccccc1C(=O)OCC(=O)c1ccccc1Cl	-3%
Cc1cc(Oc2ccc(C(F)(F)F)cc2[N+](=O)[O-])c2c3c(c(=O)oc2c1)CCC3	1%
C[C@]12CCC(=O)C=C1C=CC1C2CC[C@]2(C)C(=O)CCC12 (stereo partly drawn)	-8%
Cc1cc(OC(C)C(=O)NCc2ccncc2)c2c3c(c(=O)oc2c1)CCC3 (stereo not drawn)	2%
CCCCSP(=O)(SCCCC)SCCCC	5%
S=C1NCCN1	-2%
CC1CCCN(C(=O)CCl)C1 (stereo not drawn)	-1%
CCN(CC)c1ccc(N=Cc2c(O)n(-c3cc(OC)ccc3OC)c(=O)[nH]c2=O)cc1	0%
Cn1c(=O)c2nncnc2n(C)c1=O	-3%
O=C1CC2OCC=C3CN4CC[C@]56c7ccccc7N1[C@H]5[C@H]2C3C[C@H]46 (stereo partly drawn)	33%&-4%[activator]
COc1ccccc1N1CCN(C2CCCN(C(=O)COc3ccccc3Cl)C2)CC1 (stereo not drawn)	-5%
COCCNC(=O)N1[C@H]2CC[C@@H]1C(C(=O)OC)=C(c1ccc(OC(F)(F)F)cc1)C2	-2%
CN1CC[C@]23c4c5ccc(O)c4OC2[C@H](O)C=CC3[C@H]1C5 (stereo partly drawn)	-1%
CC(C)c1cccc(C(C)C)c1O	-4%
COc1cccc(C2(O)CCN(CC(=O)Nc3nc(C)cs3)CC2)c1	-2%
O=C(O)c1cc(Oc2ccc(C(F)(F)F)cc2Cl)ccc1[N+](=O)[O-]	8%
CNC(=O)Oc1cccc2c1OC(C)(C)O2	-4%
O=C(CN1CC=C(c2ccccc2)CC1)Nc1c(Cl)cccc1Cl	-13%
Cc1ccc(C(=O)c2cc(Br)ccc2N)cc1	-14%
CCCCN1C(=O)C(C2c3ccccc3C(=O)N2Cc2ccccc2)C(=O)NC1=S (stereo not drawn)	?
O=C(COC(=O)Cc1ccccc1)Nc1nnc(-c2ccccc2)o1	-1%
COc1ccc(O)c(C(C)(C)C)c1	-18%&-4%
CC(O)(CS(=O)(=O)c1cccc(C(F)(F)F)c1)C(=O)Nc1ccc(C(F)(F)F)cc1 (stereo not drawn)	-7%
O=C(COC(=O)c1ccc(O)cc1)Nc1ccc(Cl)cc1C(=O)c1ccccc1	0%
CNC(=S)NC1CC2CCCC(C1)N2CC(C)C (stereo not drawn)	-8%

Other records follow.
SMILES	GCN5L2 inh
CC(C)(c1ccc(O)cc1)c1ccc(O)cc1	2%
CCC(C)C1O[C@]2(C=CC1C)CC1CC(C/C=C(\C)[C@H](OC3CC(OC)C(O[C@H]4CC(OC)[C@@H](O)C(C)O4)C(C)O3)[C@@H](C)/C=C/C=C3\COC4C(O)C(C)=C[C@H](C(=O)O1)[C@@]34O)O2 (stereo partly drawn)	-16%
CC(C)N1CCN(Cc2ccccc2C(F)(F)F)CC1CCO (stereo not drawn)	-2%
CN1CCN(c2ccc([N+](=O)[O-])c(Sc3nncn3C)c2)CC1	-25%
Cc1nc2cc([N+](=O)[O-])ccc2c(=O)n1-c1ccccc1[N+](=O)[O-]	-28%
C[C@]12CC[C@H](O)CC1=CCC1C2CC[C@@]2(C)C1CC[C@@H]2OCc1ccccc1 (stereo partly drawn)	2%
CCCNC(=O)N1[C@H]2CC[C@@H]1C(C(=O)OC)=C(c1ccc3ccccc3c1)C2	-6%
Cc1oc2ccc(OC(=O)N(C)C)cc2c1C(=O)OC(C)C	-3%
CCOP(=S)(OCC)c1ccc(N(C)C)cc1	-1%
C[C@]12CCC3C(CC[C@@H]4C[C@H](O)CC[C@]34C)C1CCC2=O (stereo partly drawn)	1%

Sorted by SMILES length (largest number first): some entries from above
SMILES	GCN5L2 inh
COC(=O)C1=C(c2ccc(F)cc2OCc2ccccc2)C[C@@H]2CC[C@H]1N2C(=O)N1CCCCC1	-14%
COCCNC(=O)N1[C@H]2CC[C@@H]1C(C(=O)OC)=C(c1ccc(OC(F)(F)F)cc1)C2	-2%
C[C@]12CC[C@H](O)CC1=CCC1C2CC[C@@]2(C)C1CC[C@@H]2OCc1ccccc1 (stereo partly drawn)	2%
COc1ccc(CN2C(=O)NC(=O)/C(=C\c3ccc(OC)c(OC)c3OC)C2=O)cc1	-10%
Cc1nc2cc([N+](=O)[O-])ccc2c(=O)n1-c1ccccc1[N+](=O)[O-]	-28%
Cc1ccccc1-n1c(-c2ccc([N+](=O)[O-])cc2)nc2ccccc2c1=O	-2%
O=C1NC(=O)C2(Cc3ccccc3N3CCCC32)C(=O)N1c1cccc(Cl)c1 (stereo not drawn)	-2%
O=C(O)c1cc(Oc2ccc(C(F)(F)F)cc2Cl)ccc1[N+](=O)[O-]	8%
Cc1cc(NC(=O)COC(=O)c2c(C)nn(Cc3ccccc3Cl)c2Cl)no1	-6%
CCCCc1nc2ccccc2c(=O)n1-c1ccc(Cl)cc1[N+](=O)[O-]	-1%
C[C@]12CCC(=O)C=C1C=CC1C2CC[C@]2(C)C(=O)CCC12 (stereo partly drawn)	-8%
CCC(=Nc1ccc(OC)cc1OC)c1c(O)n(C)c(=O)n(C)c1=O	1%
COc1cccc(C2(O)CCN(CC(=O)Nc3nc(C)cs3)CC2)c1	-2%
CS(=O)(=O)N1CCCC(C(=O)N2CCC3(CC2)OCCO3)C1 (stereo not drawn)	-7%
Cc1ccsc1C(=O)C1CCCN(Cc2cccc(OCCO)c2)C1 (stereo not drawn)	-5%
CN(C)C1=NC(N(C)C)=NP(N(C)C)(N(C)C)=N1	-1%
CC(C)N1CCN(Cc2ccccc2C(F)(F)F)CC1CCO (stereo not drawn)	-2%
N#Cc1ccc(NC(=O)CN2CCCCCC2)cc1Cl	-2%
O=C(O)C1(c2ccc(Cl)cc2)CCC1	-6%
CC(C)c1cccc(C(C)C)c1O	-4%
CC1CCCN(C(=O)CCl)C1 (stereo not drawn)	-1%
